Screens deposited in PubChem by National Center for Advancing Translational Sciences (NCATS).
StopGo FLuc: lowers the firefly signal of an FMDV 2A StopGo reporter. Potency, µM (series often up to 57.5 µM), for inactives: top-dose signal change, negative = less light. HEK cells with a luciferase reporter of 2A StopGo recoding. 120,000 tested, 0.23% active; active = well fitted falling curve with a large enough effect; inconclusive = small, poorly fitted or top-dose-only effect; inactive = no such curve, though single readings can be large or run the other way; further: nearly all actives have a fitted effect of over 60% in size; overnight with compound
StopGo RLuc: FMDV 2A StopGo reporter, Renilla signal. HEK cells with a luciferase reporter of 2A StopGo recoding. Potency, µM (series often up to 57.5 µM), without a hit: at the highest dose signal change, negative = less light. 120,000 tested, 0.32% active. AID 1745857; active means well fitted falling curve with a large enough effect; inconclusive means small, poorly fitted or top-dose-only effect; inactive means no such curve, though single readings can be large or run the other way; further: nearly all actives have a fitted effect of over 55% in size; overnight with compound
Numbers without * were called inactive; ? = inconclusive; [ ] = another dose, or the depositor's remark. On the % scale 0 is the no-effect control and ±100 the full control effect; potency means the concentration at half of the fitted maximal effect.

compound	StopGo FLuc	StopGo RLuc
Cc1cc(NC(=O)NCC2CCN(CCc3ccc(F)cc3)CC2)ccc1Br	-17%	-15%
COc1cc2[nH]c(=O)n(CCCC(=O)N(C)Cc3ccccc3)c(=O)c2cc1OC	-11%	31%[activator]
Cc1ccc(C)c(NC(=O)N(C)CCc2c(C)nn(C)c2C)c1	10%	-5%
Cc1ccc(N/N=C/c2cccc(C(F)(F)F)c2)cc1Cl	3%	9%
CCN1CCN(c2ccccc2NC(=O)CCc2nc(-c3ccsc3)no2)CC1	0%	-9%
COc1ccc(-c2noc(-c3ccc(NCC4CCCO4)c([N+](=O)[O-])c3)n2)cc1 (stereo not given)	-2%	-8%
CC(C)(C)c1ccc(/C=C2\CCc3ccccc3C2=O)cc1	78%[activator]	2%[1.06 µM]
CCNC(=O)CN1CCN(C(C(=O)O)c2c[nH]c3cc(OCc4ccccc4)ccc23)CC1 (stereo not given)	24%	5%
Cc1cnc(C(=O)Oc2ccc3oc4ccccc4c3c2)cn1	124%[activator]	0%
O=C(c1ccccc1)c1cn(Cc2ccc(F)cc2)c2ccccc2c1=O	-1%	56%[activator]
CC(C)C(=O)N1CCN(C(=O)c2cc(C3CC3)nc3ccccc23)CC1	-12%	0%
O=C1Nc2cc(Cl)ccc2Oc2cc(Oc3ccccc3)ccc21	15%	49%[activator]
Cc1csc(NC(=O)Cc2ccc3ccccc3c2)n1	30%	-13%
C[N+](C)(C)CC(F)([N+](=O)[O-])[N+](=O)[O-]	7%	8%
COc1ccc(NC(=O)c2c(NCc3ccc(C)o3)sc3c2CCCCC3)c(OC)c1	9%	10%
Cc1ccc(NC(=O)c2cc(=O)c3cc(C)ccc3o2)c(C)c1	77%[activator]	2%
N#CCCn1cc(C(=O)CN2C(=O)NC3(CCOc4ccccc43)C2=O)c2ccccc21 (stereo not given)	-6%	15%
N#Cc1nc(-c2ccccc2)oc1NCc1ccccc1	96%[activator]	82%[activator]
Cc1cc(C)cc(NC(=O)C2CCN(S(=O)(=O)c3ccc4c(c3)oc(=O)n4C)CC2)c1	-5%	-5%
CC(Oc1ccc(-c2ccc(C#N)cc2)cc1)C(=O)c1cccc(Cl)c1 (stereo not given)	?	0%[1.06 µM]
Cc1c(C)c2ccc(OCC(=O)C(C)(C)C)c(C)c2oc1=O	117%[activator]	30%
Cn1c(CNC(=O)C(Cc2ccccc2)NC(=O)c2ccccc2F)cc(=O)n(C)c1=O (stereo not given)	-6%	14%
COc1ccc(N2CCN(C(=O)c3cc4c(=O)n(Cc5cccnc5)ccc4nc3C)CC2)cc1	-29%	-25%
Cc1ccc(Nc2nc(-c3ccc(C)cc3)c(C)s2)cc1	172%[activator]	62%[activator]
CC(C)(C)C(=O)OCc1cc(=O)n2nc(C3CCCCC3)sc2n1	6%	6%
Cc1cc(/C=C(\C#N)c2ccc(F)cc2)c(C)n1C	0%	130%[activator]
Cc1ccc(NC(=O)CSc2nc(=O)n(Cc3ccccn3)c3c2CCC3)cc1F	?	103%[activator]
O=C(c1cccs1)c1cn(CCOc2ccc(Cl)cc2)c2ccccc12	4%	6%
CN(C)CCNC(=S)NC(c1ccc2c(c1)CCC2)c1cccs1 (stereo not given)	-5%	27%
Cc1cc(NC(=O)C(C)(C)Oc2cccc(Cl)c2)no1	6%	-5%
O=C(c1cccs1)N1N=C(c2ccc(F)cc2)CC1c1ccc2nccnc2c1 (stereo not given)	11%	-12%
CCOc1cc(C2c3c(oc4ccccc4c3=O)C(=O)N2Cc2ccccc2Cl)ccc1O (stereo not given)	10%	-23%
CC(CCc1ccccc1)NC(=O)c1ccc[n+]([O-])c1 (stereo not given)	55%[activator]	-3%
CCOc1cccc(-c2cc(C(=O)OC)c3ccccc3n2)c1	22%	-2%
Cc1c(C#N)c(NC(=O)CN2CCN(C(=O)C3CC3)CC2)n(C2CCCCC2)c1C	9%	20%
NNc1c(Cl)cc(Cl)cc1Cl	2%	-9%[1.06 µM]
CCOc1ccc(CNC(=O)c2cnc3sc(N4CCC(C)CC4)nn3c2=O)cc1OC	7%	-2%
CNC(=O)NC(=O)C(C)Sc1cc(C)c2ccccc2n1 (stereo not given)	22%	9%
Clc1ccccc1Nc1ncnc2c1nc1n2CCCCC1	206%[activator]	8%
CCN(Cc1ccccc1)C(=O)CSc1nc(C2CC2)nc2ccccc12	0%	0%
COc1ccc(C(=O)COC(=O)c2c(Cl)cccc2Cl)c(OC)c1	295%[activator]	116%[activator]
C/C(=N/Nc1ccc(S(N)(=O)=O)cc1[N+](=O)[O-])c1ccc(Br)cc1	7%	-2%
CC(C)COc1ccccc1N	8%	4%
CCN(Cc1ccc2c(c1)OCO2)C(=O)NC(c1ccc2c(c1)OCCCO2)C(C)C (stereo not given)	16%	62%[activator]
O=C(NCCc1ccc(F)cc1)C(=O)NCC(c1ccco1)S(=O)(=O)c1cccs1 (stereo not given)	-26%	-13%
Cc1ccccc1OCC(O)CN(Cc1ccccc1)Cc1ccccc1 (stereo not given)	9%	27%
COC(=O)c1cc(C(c2ccccc2O)C2CCCO2)n2cccc(C(C)(C)C)c12 (stereo not given)	?	?
Cc1ccc(NC(=O)Cn2c(-n3nc(C)cc3C)nc(-c3ccccc3)cc2=O)cc1	9%	1%
Cc1cccc(C)c1NC(=O)Cn1c(=O)n(CCC(=O)NCc2ccc3c(c2)OCO3)c(=O)c2sccc21	28%	22%
Cc1ccc(-c2cc(-c3ccc4c(c3)NC(=O)CO4)nc3c2COc2ccccc2-3)cc1	-14%	-3%

The results go on:
compound	StopGo FLuc	StopGo RLuc
COCCOCCO	-12%[22.9 µM]	9%[114 µM]
Cc1cc(C)c2c(C(=O)O)cc(-c3cccnc3)nc2c1	0%	13%
CCCCN(CC)CCCn1cnc2c([nH]c3ccc(Cl)cc32)c1=O	-10%	-13%
CCOc1cccc(NC(=O)c2sc3nc(-c4ccc(F)cc4)ccc3c2N)c1	74%[activator]	5%
CN1CCN(C(=O)c2ccc(CNC(=O)c3cc4cc(F)ccc4[nH]3)cc2)CC1	0%	-7%
COc1ccc(Cn2c(Oc3ccc(C)c(C)c3)nc3c2c(=O)n(C)c(=O)n3C)cc1	-7%	-10%
O=C(NC1CCCc2ccccc21)C12CC3CC(CC(Cl)(C3)C1)C2 (stereo not given)	-10%	36%[activator]
CCOC(=O)Cc1ccc(NC(=O)Nc2cccc(OCc3cc(=O)n4ccc(C)cc4n3)c2)cc1	56%[activator]	18%
O=C(CN1CCN(CC(=O)Nc2ccccc2C(=O)c2ccccc2)CC1)Nc1cccc(F)c1	-12%	-12%
CN(CC(=O)NC1(C#N)CCCC1)Cc1ccc(C(F)(F)F)cc1	-1%	3%
COC(=O)C(CCSC)NC(=O)C1CCN(c2ncnc3c2nc2n3CCCCC2)CC1 (stereo not given)	-5%	-6%
COc1ccc(C(C)=O)cc1COC(=O)C12CC3CC(CC(Br)(C3)C1)C2	16%	21%
O=C(O)c1cnc(/C=C/c2cc(Cl)c3c(c2)OCO3)s1	78%[activator]	-2%
O=C(CC1(O)C(=O)N(CCc2ccccc2)c2ccc(Br)cc21)c1ccccc1O (stereo not given)	-21%	26%
CCc1ccc2c(c1)-c1ccccc1S(=O)(=O)N2CC(=O)N1CCCCCC1	62%[activator]	21%
COCCCNc1oc(-c2cccs2)nc1C#N	135%[activator]	17%
CCN(C(=O)Cc1nc(-c2cccs2)oc1C)c1ccccc1	1%	19%
CCOC(=O)c1c(NC(=O)c2cc(-c3ccc(Br)cc3)on2)sc(C)c1C	-23%	0%
CCn1c(=O)c2sccc2n(CC(=O)NCc2ccc(F)cc2Cl)c1=O	71%[activator]	30%
Cc1cc(NC(=O)C(C)OC(=O)c2ccc3c(c2)NC(=O)CS3)no1 (stereo not given)	-3%	-5%[1.06 µM]
Cn1c(SCC(=O)NC2CCCC2)nc2c(c1=O)SCC2	-4%	-9%
O=C(O)CNCc1cccc(F)c1	21%	4%
CCCN(Cc1ccc(F)cc1)Cc1cc(=O)n2c3c(sc2n1)CCCC3	22%	-8%
CCc1ccccc1Nc1sc(C(=O)c2ccccc2)c(N)c1S(=O)(=O)c1ccccc1	16%	50%[activator]
O=C(c1cnc(N2CCOCC2)c2ccccc12)N1CCCCC1	-4%	25%

Pulled one by one from above, three records:
compound	StopGo FLuc	StopGo RLuc
Cc1ccc(NC(=O)c2cc(=O)c3cc(C)ccc3o2)c(C)c1	77%[activator]	2%
C[N+](C)(C)CC(F)([N+](=O)[O-])[N+](=O)[O-]	7%	8%
Cc1cc(NC(=O)C(C)OC(=O)c2ccc3c(c2)NC(=O)CS3)no1 (stereo not given)	-3%	-5%[1.06 µM]

Further entries follow:
compound	StopGo FLuc	StopGo RLuc
Cc1oc2cc(OCC(=O)NCc3cccs3)ccc2c(=O)c1Oc1ccccc1	-18%	-13%
Cc1ccc(/C=N/NC(=O)CC#N)cc1	22%	14%
CCOC(=O)c1nc2cc(C)c(C)cc2nc1NCCc1ccc(OC)c(OC)c1	17%	-5%
CCN(CC)CCCNC(=O)c1ccc(Cn2c(SCc3ccccc3)nc3cccnc32)cc1	21%	-8%
CCNC(=O)C(C)NC(=O)c1cc(C(C)C)nc2c1cnn2C(C)C (stereo not given)	5%	-3%
COc1ccccc1CNC(=O)COc1ncnc2ccccc12	44%[activator]	1%
N#Cc1ccc2[nH]ccc2c1	49%[activator]	10%
Cc1ccc(-c2cc(C(F)(F)F)c(C#N)c(SCC(=O)Nc3ccccc3)n2)cc1	-12%	-7%
O=C(OCC(=O)N1CCCC1)c1cc2ccccc2[nH]1	0%	-1%
O=C(CSc1nccn1Cc1ccc(Cl)cc1)NC1CCCC1	-29%	-19%
CC(C)c1nn2c(=O)cc(CSCC(=O)Nc3cccc4ccccc34)nc2s1	0%	1%
O=C(CN1C(=O)C2CCCCN2c2ccc(C(=O)N3CCCC3)cc21)NCc1ccc(F)cc1 (stereo not given)	-8%	55%[activator]
COC(=O)[C@H](NC(=O)Nc1ccc(C)c(C)c1)C(C)C	17%	-2%
COc1ccc(C(=O)O)cc1S(=O)(=O)NCC(=O)O	2%	4%

18 consecutive entries already listed, for reference:
compound	StopGo FLuc	StopGo RLuc
O=C(O)CNCc1cccc(F)c1	21%	4%
CCCN(Cc1ccc(F)cc1)Cc1cc(=O)n2c3c(sc2n1)CCCC3	22%	-8%
CCc1ccccc1Nc1sc(C(=O)c2ccccc2)c(N)c1S(=O)(=O)c1ccccc1	16%	50%[activator]
O=C(c1cnc(N2CCOCC2)c2ccccc12)N1CCCCC1	-4%	25%
Cc1oc2cc(OCC(=O)NCc3cccs3)ccc2c(=O)c1Oc1ccccc1	-18%	-13%
Cc1ccc(/C=N/NC(=O)CC#N)cc1	22%	14%
CCOC(=O)c1nc2cc(C)c(C)cc2nc1NCCc1ccc(OC)c(OC)c1	17%	-5%
CCN(CC)CCCNC(=O)c1ccc(Cn2c(SCc3ccccc3)nc3cccnc32)cc1	21%	-8%
CCNC(=O)C(C)NC(=O)c1cc(C(C)C)nc2c1cnn2C(C)C (stereo not given)	5%	-3%
COc1ccccc1CNC(=O)COc1ncnc2ccccc12	44%[activator]	1%
N#Cc1ccc2[nH]ccc2c1	49%[activator]	10%
Cc1ccc(-c2cc(C(F)(F)F)c(C#N)c(SCC(=O)Nc3ccccc3)n2)cc1	-12%	-7%
O=C(OCC(=O)N1CCCC1)c1cc2ccccc2[nH]1	0%	-1%
O=C(CSc1nccn1Cc1ccc(Cl)cc1)NC1CCCC1	-29%	-19%
CC(C)c1nn2c(=O)cc(CSCC(=O)Nc3cccc4ccccc34)nc2s1	0%	1%
O=C(CN1C(=O)C2CCCCN2c2ccc(C(=O)N3CCCC3)cc21)NCc1ccc(F)cc1 (stereo not given)	-8%	55%[activator]
COC(=O)[C@H](NC(=O)Nc1ccc(C)c(C)c1)C(C)C	17%	-2%
COc1ccc(C(=O)O)cc1S(=O)(=O)NCC(=O)O	2%	4%
